Lassa entry inh: qHTS for Inhibitors of binding or entry into cells for Lassa Virus | 300,000 compounds, 1.2% hits | Potency, µM (highest dose often 37.9 µM), for the others: top-dose activity change, negative = inhibition, most hits filed as inhibitors | Lassa virus pseudotype entry inhibition, cell reporter; control for the full effect not named in the record; active means well fitted inhibition curve with a large enough effect; inconclusive means small, poorly fitted or top-dose-only effect, or effect the other way; inactive means flat fitted curve, though single readings scatter; tested in HEK293 cells; also: % is scaled to controls: 0 for no effect and ±100 for the full control effect; nearly all actives have a fitted effect of over 50% in size; luciferase read-out
RE007 growth inh: qHTS Assay for Inhibitors of the HIV-1 protein Vpr; S. pombe RE007 Vpr strain, BacTiter-Glo ATP luminescence, 24 h; control for the full effect not named in the record; Potency, µM (series often up to 92.2 µM), without a hit: at the highest dose activity change, negative = less growth; 360,000 compounds, 0.21% hits; AID 651644, 2012; active = well fitted falling curve with a large enough effect; inconclusive = small, poorly fitted or top-dose-only effect; inactive = no such curve, though single readings can be large or run the other way;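 also: % is scaled to controls: 0 for no effect and ±100 for the full control effect; nearly all actives have a fitted effect of over 50% in size; the assay follows cell death caused by Vpr and the record does not say whether a fall means rescue or toxicity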
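Fission yeast strain RE007, carrying one chromosomally integrated HIV-1 vpr copy, was seeded at OD 0.01 in PMG+AL medium with 23 nL pinned compound. After 24 h at 30 °C and 99% humidity, viability was read by BacTiter-Glo luminescence.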
2A StopGo: High Throughput Screening for Foot and Mouth Disease Virus Antivirals; Potency, µM (titrated, usually from 57.9 µM), without a hit: at the top dose signal change, negative = less light; AID 1159524, 2015; 410,000 compounds, 1.2% hits; human cells with a luciferase reporter of 2A StopGo recoding; control for the full effect not named in the record; active = well fitted falling curve with a large enough effect; inconclusive = small, poorly fitted or top-dose-only effect; inactive = no such curve, though single readings can be large or run the other way; tested in HEK293T cells; also: % is scaled to controls: 0 for no effect and ±100 for the full control effect; nearly all actives have a fitted effect of over 45% in size; luciferase light after 4 h
NS1 function inh: qHTS Assay for Inhibitors of Influenza NS1 Protein Function; S. cerevisiae slowed by influenza A NS1, growth recovery by OD600; Potency, µM (series often up to 46.1 µM), inactives show top-dose activity, positive = more growth; 270,000 compounds, 0.4% hits; also: actives are rising curves; nearly all actives have a fitted effect of over 50% in size
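Growth recovery, yeast-based: influenza A NS1 expressed in S. cerevisiae causes slow growth, and suppressors are detected by OD600. The parent strain without NS1 is used as positive control.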
MARV entry inh: qHTS for inhibitors of binding or entry into cells for Marburg Virus | Marburg virus pseudotyped entry inhibition, cell reporter; control for the full effect not named in the record; about a third of the inactives were read at about 46 µM | Potency, µM (top dose mostly 37.8 µM), without a hit: at the highest dose activity change, negative = inhibition, actives largely listed as inhibitors | 300,000 compounds, 1.8% hits; active = well fitted inhibition curve with a large enough effect; inconclusive = small, poorly fitted or top-dose-only effect, or effect the other way; inactive = flat fitted curve, though single readings scatter; tested in HEK293 cells; about a fifth of its hits are not listed in these tables; also: % is scaled to controls: 0 for no effect and ±100 for the full control effect; luciferase read-out
Cruzain Triton: qHTS Assay for Promiscuous and Specific Inhibitors of Cruzain (with detergent) | 200,000 compounds, 0.43% hits | Potency, µM, for inactives: max response, negative = inhibition, most hits filed as inhibitors | purified cruzain, Z-FR-AMC fluorescence, 0.01% Triton | AID 1478, 2009 | Cruzipain (Trypanosoma cruzi), P25779; active = well fitted curve in the direction sought with a large enough effect; inconclusive = small, poorly fitted or top-dose-only effect, or another doubt; inactive = no such curve, though single readings can be large; an effect the other way counts as inactive or inconclusive;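 also: plate controls were neutral wells for no effect and buffer without enzyme for full effect; nearly all actives have a fitted effect of over 40% in size; top concentration of the series not given in the record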
Target sequence (P25779 123-467 limits assumed): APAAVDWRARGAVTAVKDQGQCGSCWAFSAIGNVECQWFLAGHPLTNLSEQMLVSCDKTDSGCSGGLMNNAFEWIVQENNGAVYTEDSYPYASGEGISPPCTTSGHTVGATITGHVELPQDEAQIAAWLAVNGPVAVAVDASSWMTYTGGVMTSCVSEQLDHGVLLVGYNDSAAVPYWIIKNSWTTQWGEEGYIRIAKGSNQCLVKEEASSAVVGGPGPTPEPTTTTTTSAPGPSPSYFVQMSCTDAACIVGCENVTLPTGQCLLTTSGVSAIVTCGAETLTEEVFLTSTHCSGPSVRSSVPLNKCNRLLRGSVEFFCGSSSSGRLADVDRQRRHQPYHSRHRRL
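Enzyme 1.5 nM, Z-FR-AMC 2 uM, NaOAc 100 mM pH 5.5, DTT 5 mM, Triton X-100 0.01%; 15 min RT compound preincubation; kinetic ex360/em450, 60 s delta.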
Cruzain noTriton: qHTS Assay for Promiscuous and Specific Inhibitors of Cruzain (without detergent). Cruzipain (Trypanosoma cruzi), P25779. purified cruzain, Z-FR-AMC fluorescence, no detergent. Potency, µM, without a hit: max response, negative = inhibition, hits mostly inhibitors. 200,000 compounds, 2.3% hits. AID 1476, 2009; active = well fitted curve in the direction sought with a large enough effect; inconclusive = small, poorly fitted or top-dose-only effect, or another doubt; inactive = no such curve, though single readings can be large; an effect the other way counts as inactive or inconclusive;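 also: plate controls were enzyme without inhibitor for no effect and buffer without enzyme for full effect; nearly all actives have a fitted effect of over 40% in size; top concentration of the series not given in the record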
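Detergent-free condition (0.00005% Triton X-100) in acetate buffer pH 5.5 with DTT. 1.5 nM enzyme and compound were pre-mixed 15 min, then 2 uM Z-FR-AMC substrate added; reaction progress from fluorescence change between first and third reads (60 s).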
SARS PLP yeast: qHTS of Yeast-based Assay for SARS-CoV PLP. S. cerevisiae expressing SARS-CoV PLpro, growth rescue; control for the full effect not named in the record. Potency, µM (series often up to 32.9 µM), for inactives: top-dose activity, positive = growth rescue. 330,000 compounds, 0.19% hits; also: 0% is about no effect; nearly all actives have a fitted effect of over 55% in size; growth read by luminescence after 48 h
* marks the source's active call; other numbers are inactive results; ? = inconclusive; · = not tested or not shown; [ ] = remark or other dose. Unless noted, calls follow the shape of the dose curve; as a rule, active means well fitted rising curve with a large enough effect; inconclusive means small, poorly fitted or top-dose-only effect; inactive means no such curve, though single readings can be large or run the other way. Potency is read from the fitted curve at half-maximal effect.

Each structure is followed by: Cruzain noTriton	Cruzain Triton	RE007 growth inh	SARS PLP yeast	2A StopGo	NS1 function inh	MARV entry inh	Lassa entry inh
CCCNC(=O)Cn1sc2nc(C)cc(C)c2c1=O
→ ·	·	?	-8%	-28%	3%	·	·
O=C(NCC1CCCO1)c1onc(CSc2ccccc2)c1C(=O)O (configuration not stated)
→ -2%	6.6%	7%	-6%	-13%	20%	·	·
Cn1cc(C(=O)NCCc2ccccc2)c(=O)c2cc(S(=O)(=O)N3CCCCCC3)ccc21
→ -5%	-3.7%	·	·	10%	·	8%[46.1 µM]	7%[46.1 µM]
CN(C)c1cc[n+](CC(=O)N2CCCc3ccccc32)cc1
→ ·	·	?	-4%	-7%	·	0%[46.1 µM]	0%
COC(=O)c1cc(NC(C)=O)ccc1N1CCOCC1
→ ·	·	12%	2%	-10%	4%	1%[46.1 µM]	-1%[46.1 µM]
OC1COC(c2ccccc2)OC1C(O)C1OC(c2ccccc2)OCC1O (configuration not stated)
→ ·	·	18%	·	50%[activator]	·	?	6%[46.1 µM]
COc1ccccc1N1CCN(S(=O)(=O)c2cn(C)nc2C)CC1
→ ·	·	9%	6%	2%	15%	?	9%
CC(C)(C)SCCNC(=O)CN(c1ccc(F)c(Cl)c1)S(C)(=O)=O
→ -2%	0.3%	2%	-4%	-3%	7%	2%	-23%
NNC(=O)c1n[nH]c(=O)c2ccccc12
→ ·	·	18%	-8%	0%	-1%	·	·
CN1CCN(CC(O)COc2ccc(Cl)cc2)CC1 (configuration not stated)
→ 2%	1.0%	7%	8%	-1%	7%	1%	20%
CCCCc1ccc(/C=C(\C#N)C(N)=S)s1
→ ·	·	29%	-3%	26%	-1%	-3%[46.1 µM]	-12%
O=C(Nc1ccc(OCC(F)(F)C(F)F)c(C(F)(F)F)c1)c1ccccc1
→ ·	·	3%	·	?	·	-20%	-16%
O=C(Nc1ccccc1)C1CC2CCCC(C1)C2=O (configuration not stated)
→ -5%	3.7%	-4%	3%	·	-2%	11%	-4%
CC1Cc2nc(SCC(=O)NCCc3ccccc3)n(C)c(=O)c2S1 (configuration not stated)
→ -4%	-14%	-14%	7%	-18%	-33%	·	·
O=CNc1ccc2c3c(cccc13)-c1ccccc1-2
→ ·	·	-17%	·	53%[activator]	·	14%	-3%
O=C(c1ccccn1)N(Cc1cc2ccccc2[nH]c1=O)C1CCCCC1
→ 3%	8.3%	4%	-2%	4%	2%	23%	-16%
Cc1ccc(NC(=O)Cn2cc(S(=O)(=O)NC(C)C)c(S(=O)(=O)NC(C)C)c2)cc1Cl
→ 9%	-11%	·	·	-6%	·	·	-10%[46.1 µM]
Cc1cccc2c(N=Nc3ccc(S(=O)(=O)Nc4ccc(Cl)cc4)cc3[N+](=O)[O-])c(O)[nH]c12
→ ·	·	2%	0%	35%[activator]	8%	?	2%
O=c1[nH]cc(S(=O)(=O)Nc2ccc3c(c2)OCO3)c(=O)[nH]1
→ ·	·	-8%	-2%	3%	·	20%[46.1 µM]	20%
Cc1ccc(C(=O)Nc2cc([N+](=O)[O-])ccc2F)s1
→ -4%	-2.7%	25%	2%	29%	-2%	-13%	?
O=C(COC(=O)c1ccccc1C(=O)c1ccccc1)NCCc1ccccc1
→ -4%	-6.1%	-14%	-9%	-2%	-6%	-20%[46.1 µM]	-5%
CCC(=O)N1CCc2cc(S(=O)(=O)NCCC(=O)NC3CCCCCC3)ccc21
→ ·	·	-2%	-3%	6%	6%	·	·
COc1ccc(S(=O)(=O)N2CCOCC2)cc1NC(=O)Cc1ccc2c(c1)OCCO2
→ ·	·	5%	12%	44%[activator]	·	-1%	2%
COC(=O)c1ccc(OCC2c3cc(OC)c(OC)cc3CCN2C(=O)Cc2ccc(OC)c(OC)c2)cc1 (configuration not stated)
→ ?	0.4%	·	·	-29%	·	·	-28%[46.1 µM]
COc1ccc(C2=Nc3cc(C)ccc3OC2)cc1
→ -1%	-1.4%	-5%	-12%	14µM*	-15%	?	10µM*
N=c1c(C(=O)NC2CCCCC2)cc2c(=O)n3ccccc3nc2n1CCc1ccccc1
→ ·	·	11%	7%	0%	1%	-7%[46.1 µM]	9%
COc1ccc(Cn2c(CCC(=O)Nc3ccc(OC)c(Cl)c3)nc3cccnc32)cc1
→ 0%	-0.9%	·	·	-30%	·	3%[46.1 µM]	-13%[46.1 µM]
Cc1ccc(/C=N/NC(=O)CSc2nc3nc(C)cc(C)n3n2)cc1
→ -7%	4.8%	-2%	-1%	1%	2%	-29%	?
O=C(Nc1ccccc1)C1=C[C@H](c2ccccc2)C[C@H](OCc2ccc(CO)cc2)O1
→ ·	·	4%	-2%	31%[activator]	-4%	·	·
O=C(CS(=O)CC(=O)Nc1ccccc1-c1ccccc1)Nc1ccc(F)cc1 (configuration not stated)
→ ·	·	24%	-4%	5%	-13%	-24%[46.1 µM]	-1%[46.1 µM]
CC(=O)Nc1ccc(S(=O)(=O)N2CCN(C3CCCCCCC3)CC2)cc1
→ 9%	-4.7%	-7%	2%	·	-4%	?	-3%
CCN1C(=O)c2ccccc2Sc2ccc(NC(=O)Nc3ccccc3OC)cc21
→ -20%	-6.7%	·	·	?	·	·	?
CCOc1ccc(OCCOCCOc2ccccc2Cl)cc1
→ 12%	-5.6%	20%	3%	-3%	-10%	25%	-2%
O=C1C(NS(=O)(=O)c2cccs2)=C(N2CCN(c3cccc(Cl)c3)CC2)C(=O)c2ccccc21
→ 13µM*	-1.7%	-27%	4%	-11%	1%	?	?
CCC12CN(S(=O)(=O)c3ccc(C)cc3)CC(CC)(CN(S(=O)(=O)c3ccc(C)cc3)C1)C2=O
→ 3%	-2.9%	-1%	1%	-24%	8%	?	-28%
COC(=O)c1ccccc1NC(=O)COC(=O)c1ccco1
→ -5%	0.7%	4%	-5%	-15%	-29%	1%	-3%
COc1cc(N2Cc3ccccc3C2)ccc1C=O
→ ·	·	0%	0%	?	17%	7.9µM*	?
Cc1cc(=O)oc2c(C)c(OC(C)C(=O)NCC3CCC(C(=O)O)CC3)ccc12 (configuration not stated)
→ ·	·	-2%	4%	-17%	7%	·	·
O=C(N/N=C/c1c[nH]c2ccc(Br)cc12)c1ccn(Cc2ccc(Cl)cc2)n1
→ -19%	3.2%	?	2%	-5%	10%	-28%	?
O=C(NC1CCCC1)C(c1ccccc1)N(C(=O)c1ccno1)c1ccccc1 (configuration not stated)
→ ?	1.3%	17%	2%	-9%	9%	3%	?
O=c1c(Br)c(N2CCCC2)cnn1-c1ccccc1
→ -7%	-5.4%	6%	15%	43%[activator]	1%	6%	7%
Clc1cccc(CN2CCC(Cc3ccccc3)CC2)c1
→ 3%	5.0%	-7%	2%	-17%	?	-13%	?
O=C(COC(=O)Cc1ccccc1F)Nc1ccc(SC(F)F)cc1
→ 0%	-6.1%	-14%	-23%	3%	-6%	?	0%
CCc1cccc(NC(=O)Cn2nc(-c3cc(C)ccc3C)ccc2=O)c1
→ 17%	-8.6%	·	·	0%	·	?	0%[46.1 µM]
CCN(CC)C(=O)CSc1ncnc2c1cnn2Cc1ccccc1
→ 0%	6.6%	11%	4%	-14%	-34%	?	-17%
CCc1ccc(/C([O-])=C(/C(=S)NCCN2CCOCC2)[n+]2ccccc2)cc1
→ ·	·	1%	-2%	26%	-1%	·	·
Cc1noc(C)c1CSCC(=O)N(C)CC(=O)Nc1ccc(Cl)c(Cl)c1
→ ·	·	-1%	3%	?	·	-8%	0%
CCC(C)c1ccc(NC(=O)C2CCN(c3ccc(C(F)(F)F)cn3)CC2)cc1 (configuration not stated)
→ -29%	-1.8%	7%	10%	?	10%	-11%	-5%
Cn1c(COc2ccc(F)cc2)nnc1SCC(=O)NC1CC1
→ ·	·	-5%	2%	-7%	6%	1%	-3%
Cc1cccc(CCNC(=O)c2ccc3c(c2)nc2n3CCOC2)c1
→ -1%	-1.2%	·	·	29%	·	·	?
COc1ccc(C(=O)NCCNC(=O)c2cnccn2)cc1OC
→ ·	·	6%	14%	21%	-5%	-11%[46.1 µM]	9%[46.1 µM]
Cc1ccc(-c2nnn(CC(=O)Nc3ccccc3-c3ccccc3)n2)c(-n2cnnn2)c1
→ -8%	-2.5%	2%	0%	0%	-4%	?	-15%
O=C(Nc1ccccn1)c1ccc2ccccc2n1
→ -16%	-5.9%	-29%	-2%	24%	-62%	-30%	?
C=CCNC(=O)c1cc2c(=O)n3cccc(C)c3nc2s1
→ ·	·	26%	-4%	37%[activator]	2%	?	?
O=C(COc1ccc([N+](=O)[O-])cc1)NN=C1CCCC1
→ 1%	0.5%	13%	-1%	·	-1%	15%	1%

Part of the list above in order of heavy-atom count, descending:
Each structure is followed by: Cruzain noTriton	Cruzain Triton	RE007 growth inh	SARS PLP yeast	2A StopGo	NS1 function inh	MARV entry inh	Lassa entry inh
Cc1noc(C)c1CSCC(=O)N(C)CC(=O)Nc1ccc(Cl)c(Cl)c1
→ ·	·	-1%	3%	?	·	-8%	0%
COc1ccccc1N1CCN(S(=O)(=O)c2cn(C)nc2C)CC1
→ ·	·	9%	6%	2%	15%	?	9%
CCOc1ccc(OCCOCCOc2ccccc2Cl)cc1
→ 12%	-5.6%	20%	3%	-3%	-10%	25%	-2%
CCCNC(=O)Cn1sc2nc(C)cc(C)c2c1=O
→ ·	·	?	-8%	-28%	3%	·	·

Screening data deposited in PubChem BioAssay by National Center for Advancing Translational Sciences (NCATS).
